Source: PubChem (National Center for Advancing Translational Sciences (NCATS))
AmpC nodet inh: Promiscuous and Specific Inhibitors of AmpC Beta-Lactamase (assay without detergent); 1.8% of 71,000 active; AmpC nitrocefin hydrolysis, absorbance 480 nm, no detergent; potencies from a single point are estimates; Potency, µM (doses to about 28.7 µM), for inactives: top-dose activity change, negative = inhibition; active = falling curve, for most hits resting on a single point; inconclusive = weak or doubtful change; inactive = flat or rising curve; note: % of control where 0% means no effect; about half of the hits show no inhibition at the top dose; a quarter of the inactives give rising signals
Target sequence (P00811 whole entry, looked up): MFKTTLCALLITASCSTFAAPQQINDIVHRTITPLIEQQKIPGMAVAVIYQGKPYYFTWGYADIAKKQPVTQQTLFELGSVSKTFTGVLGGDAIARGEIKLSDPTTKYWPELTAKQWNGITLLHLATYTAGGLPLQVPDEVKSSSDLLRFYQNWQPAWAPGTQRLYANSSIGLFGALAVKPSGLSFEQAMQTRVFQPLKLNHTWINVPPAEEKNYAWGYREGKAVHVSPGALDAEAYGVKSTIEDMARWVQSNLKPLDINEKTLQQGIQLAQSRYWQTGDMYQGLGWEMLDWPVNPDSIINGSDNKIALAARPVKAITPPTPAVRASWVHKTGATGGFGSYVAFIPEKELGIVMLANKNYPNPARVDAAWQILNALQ
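AmpC, 20 mM phosphate pH 7.0; 15 min cpd preinc, RT; start with nitrocefin (800 uM stock); A480 kinetic read, 20 s intervals, 4 min. No-enzyme wells = negative control.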
* marks the source's active call; other numbers are inactive results; [ ] = remark or other dose. Potency is the fitted concentration of half-maximal effect.

canonical_smiles,AmpC nodet inh
N#Cc1cccc(NC(=O)N2CC[C@@]3(CCCN(C(=O)c4ccncc4)C3)C2)c1,12%
COc1ccc(S(=O)(=O)n2nc(-c3cc(OC)c(OC)c(OC)c3)cc2N)cc1OC,130%
CC1(C)CC(=O)C=C(NCCN2CCN(C(=O)Nc3ccccc3)CC2)C1,21%
NCC(O)c1ccc(O)cc1 (stereo unspecified),-13%
O=C(NCc1cccs1)c1nn2cccnc2c1Cl,-7%
O=C(c1cnn2c(C(F)(F)F)cc(-c3ccco3)nc12)N1CCc2ccccc2C1,73%
COc1ccc(OC)c(NC(=O)CSc2nnc(-c3ccco3)n2-c2ccccc2)c1,72%
Cc1ccc(-c2csc3ncn(/N=C/N(C)C)c(=O)c23)o1,30%
Cc1cc(=S)n(-c2ccccc2)n1C,15%
O=C(CNC(=O)c1cnccn1)Nc1ccc(F)c(F)c1F,7%
Cc1ccc(S(=O)(=O)N2CCN(C(=O)CCC(=O)NC3CCCc4ccccc43)CC2)cc1 (stereo unspecified),107%
C=CCn1c(N2C(=O)CC(Cc3ccccc3)C2=O)nc2ccccc21 (stereo unspecified),44%
O=C(c1ccc2c(c1)OCO2)N1CCCc2ccccc21,2%
CCOC(=O)CSc1nnc(Cn2c(=O)sc3ccccc32)n1C,8%
CSc1nsc(SCC(=O)Nc2ccccn2)n1,-5%
Cc1ccc(C)n1-c1ccncc1,-7%
CCc1nc2ccccc2c(=O)n1-c1cccc(OC)c1,5%
CCOC(=O)C1CCCN(C(=O)Cn2sc3nc(C)cc(C)c3c2=O)C1 (stereo unspecified),28%
O=C1C(O)=C(O)C(=O)C(O)=C1O,-11%[12.8 µM]
CCOC(=O)CSc1nnc(CNC(=O)c2cccc(C)c2)n1-c1ccccc1OC,50%
CC(=O)Nc1ccc(S(=O)(=O)N2CCN(C(=O)N3CCCCCC3)CC2)cc1,18%
C/C(=N\O)C(=O)NCc1ccccn1,-7%
C=C(Cl)COc1ccc2c(C)cc(=O)oc2c1,16%
CCc1oc(C(=O)O)cc1COC,-7%
O=C(COC(=O)C1CC(=O)N(Cc2ccccc2)C1)Nc1ccc2c(c1)OCO2 (stereo unspecified),35%
O=C(Nc1ccc(CN2CCOCC2)cc1)c1cc2ccccc2oc1=O,-3%
CNC(=O)c1cc2c(=O)n3cccc(C)c3nc2n1C,0%
COc1ccc(-n2c(=O)c(C)nc3cnc(Oc4cccc(Cl)c4)nc32)cc1,92%
COCCn1c(=O)c(-c2ccc(OC)cc2)nc2cnc(Nc3cccc(OC)c3)nc21,2%
CCN(CC)CCCn1c(=S)[nH]c2ccc(Cl)cc2c1=O,-16%
CC(=O)c1c(NCCc2ccccc2)cc(C)oc1=O,16%
CC1CN(C(=O)CSc2ncnc3sccc23)CC(C)O1 (stereo unspecified),-4%
COc1ccccc1NC(=O)C(C)NS(=O)(=O)c1ccc(F)cc1 (stereo unspecified),3%
Clc1ccccc1-c1ccc2ncnc(NC3CCNCC3)c2c1,34%
C[C@]12CCC(=O)C=C1CCC1C2CC[C@@]2(C)C1CC[C@@]2(O)CC#N (stereo partly specified),6%
CCn1c(CNc2nc(-c3ccccc3)cs2)nnc1SCC(=O)NCc1ccco1,68%
S=C(c1cccs1)N1CCCC1,-2%
COc1ccccc1OCC(=O)NCc1ccco1,13%
O=C1CC(c2ccc(F)cc2)Cc2nc(N3CCc4ccccc43)ncc21 (stereo unspecified),3%
Cc1ccccc1-c1cncnc1Nc1ccc(F)cc1,12%
Cn1c(=O)cc(SCC(=O)N2CCN(C(=O)c3ccco3)CC2)c2ccccc21,59%
O=C(CC1Sc2ncnn2C1=O)Nc1ccc(Br)cc1 (stereo unspecified),5µM*
O=S(=O)(Nc1ccc(S(=O)(=O)N2CCCCC2)cc1)c1cccs1,-18%
Cc1cc(OCC(=O)N2CCOCC2)c(C(C)C)cc1Cl,102%
CN[C@@H]1[C@H](O[C@@H]2O[C@H](CO)[C@@H](N)[C@H](O)[C@@H]2O)O[C@H]2C[C@@H](N)[C@@H](O[C@H]3[C@@H](O)[C@H](O)[C@H](N)C[C@@H]3N)O[C@H]2[C@H]1O,-9%[12.8 µM]
CCCCN(CC)CCCNC(=O)CC1Nc2ccccc2NC1=O (stereo unspecified),-3%
CN1CCN(CCCNN)CC1,-2%[5.75 µM]
CC(C)C[C@@H](CC(=O)N[C@@H](CCC(=O)O)CC(=O)O)NC(=O)[C@@H]1CNCC[C@H]1NC(=O)C[C@H](CCCN)NC(=O)C[C@H](Cc1c[nH]c2ccccc12)NC(=O)[C@@H]1CNCC[C@H]1N,26%
C=CCNC(=O)Nc1ccc2oc(C)nc2c1,-8%
CN(C)c1nc(OCCOC(=O)COc2ccc(Cl)cc2Cl)nc(N(C)C)n1,102%

Following part
canonical_smiles,AmpC nodet inh
O=C(C1CCCO1)N(c1cccc(Cl)c1)C1C=CS(=O)(=O)C1 (stereo unspecified),-3%
CCOC(=O)n1c(=O)oc2cc(S(=O)(=O)N3CCCCC3)ccc21,6%
Clc1ccccc1-c1nc(-n2ccnc2)c2ccccc2n1,35%
O=C(CSc1ncn[nH]1)NCCOc1ccccc1,-2%
ClCC(Cl)Cl,-11%
CCn1c(=O)cc(OCC(=O)NCC2CCCO2)c2ccccc21 (stereo unspecified),10%
O=C(O)c1ccc(CSc2nc3ccccc3o2)cc1,-9%
COc1ccc(OC)c(S(N)(=O)=O)c1,-9%
CC(=O)c1cc2c(=O)c3cc(C)ccc3oc2nc1C,20%
Cc1nc2cc(NC(=O)Nc3ccc(N4CCOCC4)cc3)ccc2n1C,-10%
CCN(C(C)=O)c1nc(CSc2nnc(NC(C)C)s2)cs1,8%
C[C@H]1O[C@@H](O[C@H]2[C@@H](O)C[C@H](O[C@H]3[C@@H](O)C[C@H](O[C@H]4CC[C@@]5(C)[C@H](CC[C@@H]6[C@@H]5C[C@@H](O)[C@]5(C)[C@@H](C7=CC(=O)OC7)CC[C@]65O)C4)O[C@@H]3C)O[C@@H]2C)C[C@H](O)[C@@H]1O,109%
CCOC(=O)C(Cc1ccccc1)NC(=O)CNC(C)=O (stereo unspecified),-2%
C=CCOC(=O)C1=C(C)N=C2SCCC(=O)N2C1c1cccs1 (stereo unspecified),30%
COc1cc(OC)cc(-c2cc(NC(C)=O)n[nH]2)c1,-18%
O=C1CCc2cc(S(=O)(=O)N3CCN(Cc4ccc5c(c4)OCO5)CC3)ccc2N1,60%
O=C(c1ccc(Br)o1)N1CCN=C1SCc1cccc(F)c1,-8%
CN(Cc1ccccc1)C(=O)CNC(=O)Cn1cnc2ccccc2c1=O,9%
CC(C)CCN1CCNC(=O)C1CC(=O)Nc1ccc(F)cc1 (stereo unspecified),24%
CCOC(=O)C1CCN(C(=O)c2ccc(Cl)c(Cl)c2)CC1,16%
COc1ccc(N2CCN(CCNC(=O)CCN3C(=O)COc4ccccc43)CC2)cc1,44%
COc1ccc(NS(=O)(=O)c2ccc3oc4ccccc4c3c2)cn1,-6%
O=C(Nc1nnc(C2CC2)s1)c1cc(-c2ccccc2)nn1-c1ccccc1,38%
COc1ccccc1OCC(=O)Nc1ccc(S(=O)(=O)Nc2nc(C)cc(C)n2)cc1,9%
CCCS(=O)(=O)N1CCN(C(=O)c2ccccc2F)CC1,1%
CC12CCC(CC1=O)C2(C)C (stereo unspecified),-1%
COc1ccc(OC)c(NC(=O)CNC(=O)Cn2ccc3ccccc3c2=O)c1,22%
COc1cc(SC)ccc1C(=O)Nc1ccc2c(c1)CCN2S(C)(=O)=O,24%
O=C(NC1CCCCC1)C(c1cccs1)N(CC1CCCO1)C(=O)c1csnn1 (stereo unspecified),20%
COc1ccc2nc(C)[nH]c(=O)c2c1,-22%
O=C(Cc1c[nH]c2ccccc12)Nc1nccs1,-11%
Cn1cccc1C(=O)N1CCC2(CC1)CN(Cc1cc(C(F)(F)F)cc(C(F)(F)F)c1)C2,124%
COc1ccc(-n2cnnc2SCc2csc(-c3ccccc3)n2)cc1,47%
COc1ccc(-c2cc(C(=O)N3CCCc4ccccc43)no2)cc1OC,98%
Cc1ccc(Cn2cccc(NC(=O)c3ccco3)c2=O)cc1,8%
CCN(CC)CCNC(=O)c1c(O)c2cccc3c2n(c1=O)CCC3,20%
Cc1ccc(S(=O)(=O)CC(=O)N(C)C)cc1,3%
Cc1nn(C)cc1CNC(=O)c1ccccc1Br,3%
CCN(CC(=O)O)S(=O)(=O)c1cc(Cl)ccc1Cl,2%
COc1ccc(NC2CC(=O)NC2=O)cc1 (stereo unspecified),-6%
Cc1c(C)c(C)c(CC2(C)CSC2)c(CC2(C)CSC2)c1C,1%[5.75 µM]
COc1cccc(=O)c2c(C)n(C)c(C)c12,0%
NC(=O)C1CCN(C(c2ccccc2Cl)c2nnnn2Cc2ccc3c(c2)OCO3)CC1 (stereo unspecified),96%
CCOC(=O)c1c(C)c(C(=O)NCc2cccs2)c(C)n1C,8%
Cc1ccnc(SCCn2c(N3CCCCC3)nc3c2c(=O)n(C)c(=O)n3C)n1,31%
Clc1ccc(NC2=NCCCCC2)cc1,-2%
CC1CCN(C(=O)CSc2nnc(Cc3cccn3C)n2CCc2ccccc2)CC1,120%
Cn1c(=O)c(=O)n(C)c2cc(S(=O)(=O)N3CCc4ccccc43)ccc21,54%
CC1CN(c2nc(-c3ccccc3)nc3ccccc23)CC(C)O1 (stereo unspecified),93%
O=C(c1cc(C(F)(F)F)cc(C(F)(F)F)c1)N1CCC2(CCCN(c3ccccc3)C2)CC1,33%

Remaining list, next part.
canonical_smiles,AmpC nodet inh
COc1ccc(S(=O)(=O)N2CCC(C)CC2)cc1Br,19%
COc1ccc(N2CC(C)Cn3c2nc2c3c(=O)n(Cc3ccccc3F)c(=O)n2C)c(OC)c1 (stereo unspecified),136%
O=C(Nn1c(Cc2cccs2)nc2ccccc2c1=O)c1cccs1,-14%
Cc1noc(NS(=O)(=O)c2ccc(NC(=O)CS(=O)(=O)c3ccccc3)cc2)c1C,-1%
CC(C)(C)c1onc(OCP(=O)(O)O)c1C[C@@H](N)C(=O)O,-9%
CCCCN(CC)CCNC(=O)CN(C)S(=O)(=O)c1ccc2c(c1)c(=O)n(C)c(=O)n2C,-1%
CCOCCCNC(=O)N[C@@H](C)C(=O)OC,-3%
COc1cc(C(=O)Nc2nnc(-c3sccc3C)s2)cc(OC)c1OC,14%
COc1ccccc1Cn1c(=O)c2ccccc2n2c(SCC(=O)N3CCCCC3)nnc12,75%
COC(=O)c1ccc(NC(=O)c2ccccc2N(C)S(C)(=O)=O)cc1,4%
CCOC(=O)C1CCN(C(=O)c2c(-c3c(Cl)cccc3Cl)noc2C)CC1,78%
C=CCn1c(SCc2ccc(C#N)cc2)nnc1-c1cccc(OC)c1,29%
CCCCC(NC(=O)c1ccc(Cl)cc1)C(=O)O (stereo unspecified),-4%
CCOC(=O)N1CCC(Nc2nc3ccccc3nc2NS(=O)(=O)c2ccc(Cl)cc2)CC1,44%
Cc1ccc(C2c3c(oc4ccccc4c3=O)C(=O)N2c2nnc(C(C)C)s2)o1 (stereo unspecified),5%
Cc1cc(C(F)(F)F)nn1CC(=O)N1CCCC1,6%
CCOc1ccc(CCNC(=O)C2CCN(S(=O)(=O)CC)CC2)cc1OCC,12%
Oc1c(C(c2ccc(F)cc2)N2CCc3ccccc3C2)sc2ncnn12 (stereo unspecified),-9%
Cc1cc2cc(C(c3nnnn3Cc3ccco3)N3CCc4ccccc4C3)c(=O)[nH]c2cc1C (stereo unspecified),13%
CCc1cc(=O)oc2cc(OCC(=O)N(CC)CC)c(Cl)cc12,10%

Sorted by number of heavy atoms (descending): 5 of the compounds above
canonical_smiles,AmpC nodet inh
Cc1cc2cc(C(c3nnnn3Cc3ccco3)N3CCc4ccccc4C3)c(=O)[nH]c2cc1C (stereo unspecified),13%
Cc1ccc(C2c3c(oc4ccccc4c3=O)C(=O)N2c2nnc(C(C)C)s2)o1 (stereo unspecified),5%
CCOc1ccc(CCNC(=O)C2CCN(S(=O)(=O)CC)CC2)cc1OCC,12%
CCc1cc(=O)oc2cc(OCC(=O)N(CC)CC)c(Cl)cc12,10%
CCCCC(NC(=O)c1ccc(Cl)cc1)C(=O)O (stereo unspecified),-4%

(further entries)
canonical_smiles,AmpC nodet inh
CC(c1ccccc1)N1C(=O)c2ccc(C(=O)NCc3ccco3)cc2C1=O (stereo unspecified),11%
Nc1ccccc1[N+](=O)[O-],-16%
CCOC(=O)N=S(N)(=O)c1ccc(Cl)cc1 (stereo unspecified),-8%
Cc1cn([C@H]2C[C@H](N=[N+]=[N-])[C@H](CO)O2)c(=O)[nH]c1=O,2%[5.75 µM]
NC(=O)COC(=O)c1ccc(S(=O)(=O)N2CCCCCC2)cc1,16%
COc1ccc(CNC(=O)Nc2cccc(C)c2)cc1,-16%
O=C(c1ccco1)N1C(=O)c2cccc3cccc1c23,-5%
CN(C(=O)C1CCCO1)c1nnc(-c2ccncc2)s1 (stereo unspecified),2%
N#Cc1cc2c(nc1SCc1ccccc1)CCCC2=O,7%
O=c1c2ccc(-c3nnc4n3-c3ccccc3SC4)cc2nc2n1CCCCC2,11%
O=C(Nc1nnc(-c2ccco2)s1)C1CCCCC1,-21%
CCN(CC)CCCNC(=O)CC1Oc2ccc(C)cc2NC1=O (stereo unspecified),4µM*[single pt active]
CCOc1ccccc1C1C(C(=O)Nc2ccccc2OC)=C(C)Nc2nc(CCCO)nn21 (stereo unspecified),64%
COCCn1c(=O)c2c3c(sc2n(CC(N)=O)c1=O)CCCC3,8%

A portion of the library; rates above refer to the full screens.
